# HPGD block – HPGD (human) dehydrogenase inhibition; purified HPGD, NADH fluorescence kinetic, PGE2 substrate; Potency, µM, without a hit: at the highest dose activity change, negative = inhibition, usual class: inhibitors; actives 4.3% (n = 150,000); AID 894; active = well fitted inhibition curve with a large enough effect (not every such curve was filed as active); inconclusive = small, poorly fitted or top-dose-only effect, or another doubt; inactive = no such curve, though single readings can be large or run the other way;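 note: top concentration of the series not given in the record; plate controls included wells without enzyme; inactives centre near -10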
# Target sequence (P15428 whole entry, looked up): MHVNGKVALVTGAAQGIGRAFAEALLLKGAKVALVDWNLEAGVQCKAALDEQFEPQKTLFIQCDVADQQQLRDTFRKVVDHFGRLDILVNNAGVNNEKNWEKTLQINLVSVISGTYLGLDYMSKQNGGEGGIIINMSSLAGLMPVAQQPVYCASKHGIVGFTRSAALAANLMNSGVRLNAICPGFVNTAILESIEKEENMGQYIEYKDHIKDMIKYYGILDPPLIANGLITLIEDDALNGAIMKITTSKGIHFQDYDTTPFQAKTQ
#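 NADH formation kinetics: reaction with 30 uM PGE2 and 1 mM NAD+ (final), 20 nM enzyme, Tris-HCl pH 8 with Tween 20, after 15 min compound preincubation at room temperature. Fluorescence change, last versus first of five reads.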
# The depositor's hits bear a star; ? = inconclusive; & = joins results of further samples. % is set by controls: 0 for no effect and ±100 for the full control effect; potency is the fitted concentration of half-maximal effect. This is a subset; count on the stated rates, not on these rows.
HPGD block	compound
-30%	COc1ccc(/C=C/C(=O)NC(=S)NN2CCCCC2c2cccnc2)cc1 (stereo unspecified)
-1%	Cc1cc(N2CCN(c3cccc(C(F)(F)F)c3)CC2)n2ncnc2n1
-6%	C/C(=N\NC(=O)C(c1ccncc1)N1CCOCC1)c1ccc(Br)cc1 (stereo unspecified)
0%	CC1CCN(c2ccc(C(=O)O)cc2)CC1
-5%	Cc1cc(C(=O)NNCc2ccccc2)no1
-16%	CC1(c2ccccc2)NC(=O)N(CC(=O)NC(=O)NCc2ccco2)C1=O (stereo unspecified)
-29%	Cc1ccc(N(CC(=O)N/N=C/c2cccs2)S(C)(=O)=O)cc1
-12%	CCN(C(=O)c1cn(C)c(=O)c2cc(OC)c(OC)cc12)c1cc(C)ccc1C
1%	CCc1cc(C(=O)NNC(=S)NC(C)c2ccccc2)cs1 (stereo unspecified)
-17%	O=C(NC1CCCCC1)C(c1ccc2ncccc2c1)N(Cc1cccs1)C(=O)c1cccs1 (stereo unspecified)
?	COC(=O)Nc1sc2c(c1C(=O)NCc1ccco1)CCC2
-14%	CCOC(=O)Cc1csc(NC(=O)c2cc(OC)cc(OC)c2)n1
?	O=C1CC(O)(C(F)F)Oc2ccc3ccccc3c21 (stereo unspecified)
-9%	O=C(CSc1nncn1-c1ccccc1)Nc1ccc(N2CCOCC2)cc1
-1%	Cc1ccc(COCCN2CCN(S(=O)(=O)c3ccc(C)cc3)CCC2=O)cc1
-4%	COc1cccc2cc(C(N)=O)/c(=N/NC(=O)COc3ccc(Cl)cc3)oc12

# Compounds above that have two or more sulfur atoms (3):
HPGD block	compound
-29%	Cc1ccc(N(CC(=O)N/N=C/c2cccs2)S(C)(=O)=O)cc1
1%	CCc1cc(C(=O)NNC(=S)NC(C)c2ccccc2)cs1 (stereo unspecified)
-17%	O=C(NC1CCCCC1)C(c1ccc2ncccc2c1)N(Cc1cccs1)C(=O)c1cccs1 (stereo unspecified)

# Going on with the list:
HPGD block	compound
-16%	COc1ccc(C(C(=O)NC2CCCCC2)N(Cc2cccs2)C(=O)Cc2c[nH]c3ccccc23)cc1 (stereo unspecified)
-9%	COC(=O)[C@H](COC(C)(C)C)NC(=O)O[C@@H]1C(=O)c2cc(Br)ccc2O[C@H]1c1cccc(OC)c1
-1%	CC(=O)OCc1c(COC(C)=O)[n+](=O)c2ccccc2n1[O-]
-22%	CC(=O)Nc1ccc(C(=O)OCC(=O)c2ccc(C)c([N+](=O)[O-])c2)cc1
13µM*	CCOc1cc(C(=S)N2CCOCC2)ccc1O
-6%	CN(CCC#N)C(=O)Cn1nc(Cc2ccncc2)c2ccccc2c1=O
-14%	CCOC(=O)c1c(NC(=O)CSc2cn(CC)c3ccccc23)sc2c1CCC2
-21%	Clc1ccc(CSc2nnc(CNc3cccc(Cl)c3)o2)cc1
-10%	CCC(Oc1ccccc1)C(=O)Nc1ccc(S(=O)(=O)N2CCOCC2)cc1 (stereo unspecified)
-5%	CC1CN(C(=O)Nc2ccc3c(c2)OCO3)CC(C)O1 (stereo unspecified)
-9%	CCOC(=O)c1cnc(SCCc2ccccc2)nc1N
-6%	COCCCN1C(=O)c2[nH]nc(-c3ccccc3O)c2C1c1ccc(Cl)cc1 (stereo unspecified)
-15%	COc1cc(NC(=S)N2CCN(C(=O)C3CCCO3)CC2)c(OC)cc1Cl (stereo unspecified)
-4%	CCOCCCNC(=O)C(c1ccc(Cl)cc1)N1CCN(c2ccccc2)CC1 (stereo unspecified)
-3%	CCCn1c(SC(C(=O)Nc2cccc(OC)c2)c2ccccc2)nc2ccccc2c1=O (stereo unspecified)
-14%	CCCCC(=O)Nc1ccc(C(=O)NNC(=O)c2ccccc2Br)cc1
1%	CC12c3ccccc3C(c3ccccc31)C1C(=O)N(Cc3cccnc3)C(=O)C12 (stereo unspecified)
-20%	COc1ccc(OC)c(NC(=O)c2ccc3c(=O)n(CCc4ccccc4)c(=S)[nH]c3c2)c1
-6%	COc1ccccc1CNC(=O)C1CC(c2ccc([N+](=O)[O-])cc2)=NO1 (stereo unspecified)
0%	O=S(=O)(NCc1cc(-c2ccc(Cl)cc2)no1)c1ccc(Cl)cc1
-10%	CN(CC(=O)O/N=C(\N)c1ccc([N+](=O)[O-])cc1)S(=O)(=O)c1ccc2ccccc2c1
-2%	NC(=O)CSc1nnc(CNc2cccc(Cl)c2)n1CCc1ccccc1
?	CCCCNc1nc(C)nc2c1nc(-c1ccccc1)n2CCN1CCCCC1
-8%	Cc1ccccc1-n1nc(C)c2cc(C(=O)N3CCN(S(=O)(=O)c4ccccc4)CC3)sc21
?	S=C(Nc1cccc(Cl)c1)Nc1cccc2cnccc12
-17%	O=C(COc1cccc(Cl)c1)NNC(=S)Nc1ccccc1
-11%	Cc1[nH]n(-c2ccccc2)c(=O)c1/C=N/NC(=O)COc1ccccc1[N+](=O)[O-]
-5%	COc1ccccc1S(=O)(=O)Cc1ccc(C(=O)N2CCCC2)o1
?	Cc1ccc(-c2nc(-c3cccnc3)sc2CC(=O)Nc2ccc(C)c(Cl)c2)cc1
-12%	CCOC(=O)C1(CCC(C)C)CC(CSc2nc3ccccc3[nH]2)OC1=O (stereo unspecified)
-19%	CCOC(=O)c1cnc(SC)nc1Sc1ccccc1
-14%	COc1ccc(/C=C/C(=O)Nc2c(C)nn(C)c2C)cc1COc1ccc(Cl)cc1Br

# In the list so far, two contain fluorine.
HPGD block	compound
-1%	Cc1cc(N2CCN(c3cccc(C(F)(F)F)c3)CC2)n2ncnc2n1
?	O=C1CC(O)(C(F)F)Oc2ccc3ccccc3c21 (stereo unspecified)

# Further structures.
HPGD block	compound
2%	COC(=O)/C(=C/c1ccccc1)NC(=O)c1ccco1
25µM*	CC1CCN(C(=O)c2ccc(SCc3ccccc3F)c([N+](=O)[O-])c2)CC1
0%	CN(C/C=C\c1ccccc1)Cc1cccc2ccccc12
-9%	CN(C)C(=O)C1(c2ccccc2)CCN(S(=O)(=O)c2ccccc2)CC1
-5%	COc1cc(CN2CCC(C(=O)N3CCN(c4ccccc4F)CC3)CC2)ccc1O
-2%	Cc1cccc(N(Cc2ccccc2F)S(C)(=O)=O)c1
-10%	COc1ccc(OC)c(C2CC(=O)C3=C(C2)NC(=O)CC3c2ccc(O)c(OC)c2)c1 (stereo unspecified)
-6%	Cn1c(=O)c2c(nc(Oc3ccc4c(c3)OCO4)n2Cc2ccc(F)cc2)n(C)c1=O
-7%	COc1cccc(-c2nnc(SCC(=O)Nc3ccc(S(N)(=O)=O)cc3)n2C)c1
-3%	O=C(c1ccco1)N1CCN=C1SCc1ccc(F)cc1
-5%	O=S(=O)(NCc1ccccc1)c1ccc(S(=O)(=O)N(Cc2ccccn2)C2CCCC2)cc1
-10%	CCOc1ccccc1OCC(=O)Nc1ccc(Cl)cc1Cl
-9%	COc1cc(CNCCN(C)C)c(Br)cc1OCC(=O)NCc1ccccc1
-17%	COc1ccc(CNC(=S)Nc2ccc(OC)cc2)cc1
-10%	CCC(=O)NCCc1nc2cc(NC(=O)c3ccccc3OC)ccc2n1C
-21%	COc1ccc(Cl)cc1-c1n[nH]c(=S)n1C
-10%	O=C(NC1(C(F)(F)F)NC(=O)N(c2ccccc2)C1=O)c1cccs1 (stereo unspecified)
?	CCOC(=O)c1cc2c(=O)n3cccc(C)c3nc2n(Cc2ccco2)c1=NC(=O)c1ccccc1
16µM*	Cc1ccc(Nc2c([N+](=O)[O-])cc(C(=O)N3CC(=O)Nc4ccccc43)cc2[N+](=O)[O-])c(C)c1
0%	CC1CCCCC1NC(=O)c1ccc(S(=O)(=O)N2CCCC2)cc1 (stereo unspecified)
?	CC1=CC2=NC(=O)/C(=C\c3cc(C)n(-c4cccc(Cl)c4)c3C)C(=N)N2O1
-5%	COC(=O)C(CC(C)C)NC(=O)c1ccc(F)cc1 (stereo unspecified)
-10%	CCCCC1NC(C(=O)O)CS1 (stereo unspecified)
-8%	COc1ccc(NC2=Nc3ccccc3CC2)cc1
-4%	CCCCNC(=O)NS(=O)(=O)c1ccc(C(=O)OC)o1
-18%	Cn1c(=O)c2c(n(Cc3ccccc3)c1=O)NC(=O)C2CC(=O)O (stereo unspecified)
16µM*	COC(=O)C1=CN(c2cccc(C)c2)C=C(C(=O)OC)C1c1cc(OC)c(O)c([N+](=O)[O-])c1
14µM*	CN(C)S(=O)(=O)Nc1ccc2c(c1)Cc1ccccc1-2
-17%	Cn1c(=O)c2[nH]c(CS(=O)(=O)Cc3nc4c([nH]3)c(=O)n(C)c(=O)n4C)nc2n(C)c1=O
-21%	O=[N+]([O-])c1ccc(-c2csc(Nc3ccccc3)[n+]2Cc2ccccc2)cc1
3%	CCC(C)(C(=O)NC1CCCCC1)N(C(=O)C1CCC(=O)N1)c1ccccc1 (stereo unspecified)
0%	COc1cc(Cl)c(C)cc1NC(=O)COc1cc(C)nc(C(C)C)n1
-16%	N#CCSc1nc2ccccc2c(=O)n1CCC(=O)NCCc1ccccc1
?	COc1cc(NC(=O)c2cc3nc(C)cc(C)n3n2)c(OC)cc1Cl
-1%	O=C1C2C3C=CC(C4CC34)C2C(=O)N1Cc1ccco1 (stereo unspecified)
?	Oc1ccc(Cl)cc1C=Nc1ccc2c3c(cccc13)CC2
-21%	O=C(NCCc1ccccc1)c1cnn2c(C(F)F)cc(C3CC3)nc12
4%	CCOc1ccc(N(CC(=O)NC2CCCC2)S(=O)(=O)c2c(C)noc2C)cc1
-11%	COc1ccccc1C(=O)/C=C/c1ccc(N2CCCCC2)c([N+](=O)[O-])c1
1%	O=C(Cc1c(F)cccc1Cl)N1CCN(C(=O)c2ccco2)CC1
-5%	Cn1c(Cn2c(=O)sc3ccccc32)nnc1SCC(=O)NCc1ccc(F)cc1
-2%	C=CCc1ccccc1OCCCCN1CCCC1
10µM*	Cc1ccc(C(C)C)c(OCc2ccc(-c3nnco3)cc2)c1
-1%	Cc1ncc(C[n+]2csc(CCOC(=O)CC34CC5CC(CC(C5)C3)C4)c2C)c(N)n1
-2%	O=C1C(=O)N(O)C2CCCCC2N1O (stereo unspecified)
?	C=CCn1c(N)c(C(=O)OC(C)(C)C)c2nc3ccccc3nc21
-12%	Cc1ccccc1Nc1nnc(SCC(=O)NC2CCCc3ccccc32)s1 (stereo unspecified)
-5%	Cc1ccc(C)n1-n1cnc2sc3c(c2c1=O)CCCCC3

# 5 compounds out of the list, arranged by molar mass, lowest first.
HPGD block	compound
-2%	O=C1C(=O)N(O)C2CCCCC2N1O (stereo unspecified)
-2%	C=CCc1ccccc1OCCCCN1CCCC1
10µM*	Cc1ccc(C(C)C)c(OCc2ccc(-c3nnco3)cc2)c1
-12%	Cc1ccccc1Nc1nnc(SCC(=O)NC2CCCc3ccccc32)s1 (stereo unspecified)
-1%	Cc1ncc(C[n+]2csc(CCOC(=O)CC34CC5CC(CC(C5)C3)C4)c2C)c(N)n1

# Next section.
HPGD block	compound
-8%	CCOC(=O)C(C)CC(C)C(=O)N1CCOCCN(C(=O)C(C)CC(C)C(=O)OCC)CCOCC1 (stereo unspecified)
-14%	C=C(C)[C@@H]1CCC2(C(=O)O)CC[C@]3(C)[C@H](CC[C@@H]4[C@@]5(C)CCC(=O)C(C)(C)[C@@H]5CC[C@]43C)[C@@H]12 (stereo partly specified)
-14%	CS(C)(=O)=O
?	c1ccc2c(c1)Cc1cc3cc4c(cc3nc1-2)OCO4
-13%	CC(C)(C)c1ccc(C(=O)NCC(=O)OCc2ccc([N+](=O)[O-])cc2)cc1
4%	O=C(c1cccnc1)N1CCN(Cc2ccccc2Br)CC1
?	CCC(=O)c1ccc(N2CCN(C(=O)c3ccc(Br)cc3)CC2)c(F)c1
-2%	COc1ccc(CNC(=O)C2CCN(c3nc(OC)nc(OC)n3)CC2)cc1
-19%&-4%	O=C(O)CN(CCN(CC(=O)O)CC(=O)O)CCN(CC(=O)O)CC(=O)O
-8%	CC(=O)Nc1ccc(NC(=O)COc2ccccc2C(=O)Nc2cccc(Cl)c2Cl)cc1
-8%	O=C(CNC(=O)Cc1ccccc1)NCC(=O)OCC(=O)c1ccccc1Cl
?	O=C(Cn1cnc2c(nnn2-c2ccc(F)cc2)c1=O)NCc1ccco1
-14%	Cc1ccc(Nc2nc(Cl)nc(N(C)C#N)n2)cc1
-9%	Cc1ccc(NC(=O)Nc2ccc(F)cc2)nc1
?	COc1ccc(OCC(=O)Nc2ccc(N3CCOCC3)c(Cl)c2)cc1
-7%	O=C(CCCSc1nc2ccccc2[nH]1)NCc1ccccc1
-5%	O=C(O)CSCCc1ccccn1
-2%	Cc1nnsc1SCCNC(=O)c1ccc(F)cc1
?	Cc1ccc(S(=O)(=O)[N-]c2nc3ccccc3nc2-n2cc[n+](CCC(C)C)c2)cc1
-10%	O=C(Nc1ccc2c(c1)nc1n2CCOC1)c1ccco1
?	COC(=O)c1sc2nc(SCc3cccc(Cl)c3)n(N)c(=O)c2c1C
-4%	Cc1cc2oc(C(=O)Nc3c(C)n(C)n(-c4ccccc4)c3=O)c(C)c2cc1Cl
2%	Cc1ccc(Nc2nc(NCC3CCCO3)nc(N)c2[N+](=O)[O-])cc1 (stereo unspecified)
-21%	O=C(COC(=O)c1c2c(nc3ccccc13)CCCC2)Nc1ccc2c(c1)OCO2
-12%	CN1/C(=C/C(=O)c2cccs2)Sc2ccccc21
?	CC(=O)Nc1ccc(N=Nc2ccc(O)cc2)cc1

# Among those listed so far, 2 contain a CF3 group:
HPGD block	compound
-1%	Cc1cc(N2CCN(c3cccc(C(F)(F)F)c3)CC2)n2ncnc2n1
-10%	O=C(NC1(C(F)(F)F)NC(=O)N(c2ccccc2)C1=O)c1cccs1 (stereo unspecified)

# High-throughput results deposited in PubChem by National Center for Advancing Translational Sciences (NCATS).
